Bioassay records: PubChem BioAssay, National Center for Advancing Translational Sciences (NCATS)
2A StopGo: FMDV 2A StopGo reporter, luciferase signal | human cells with a luciferase reporter of 2A StopGo recoding; control for the full effect not named in the record | Potency, µM (series often up to 57.9 µM), without a hit: at the top dose signal change, negative = less light | 1.2% of 410,000 active | AID 1159524; active = well fitted falling curve with a large enough effect; inconclusive = small, poorly fitted or top-dose-only effect; inactive = no such curve, though single readings can be large or run the other way; tested in HEK293T cells; note: % is set by controls: 0 for no effect and ±100 for the full control effect; nearly all actives have a fitted effect of over 45% in size; luciferase light after 4 h
LASV entry inh: Lassa virus entry inhibition; Lassa virus pseudotype entry inhibition, cell reporter; control for the full effect not named in the record; Potency, µM (series often up to 37.9 µM), for inactives: at the highest dose activity change, negative = inhibition, actives largely listed as inhibitors; 1.2% of 300,000 active; AID 540256; active means well fitted inhibition curve with a large enough effect; inconclusive means small, poorly fitted or top-dose-only effect, or effect the other way; inactive means flat fitted curve, though single readings scatter; tested in HEK293 cells; note: % is set by controls: 0 for no effect and ±100 for the full control effect; nearly all actives have a fitted effect of over 50% in size; luciferase read-out
SARS PLpro yeast: SARS-CoV PLP inhibition in yeast; S. cerevisiae expressing SARS-CoV PLpro, growth rescue; control for the full effect not named in the record; Potency, µM (titrated, usually from 32.9 µM), for the others: at the top dose activity, positive = growth rescue; 0.19% of 330,000 active; note: 0% is about no effect; nearly all actives have a fitted effect of over 55% in size; growth read by luminescence after 48 h
Cruzain Triton: inhibitors of Trypanosoma cruzi cruzain with detergent; P25779; purified cruzain, Z-FR-AMC fluorescence, 0.01% Triton; Potency, µM, inactives show max response, negative = inhibition, hits mostly inhibitors; 0.43% of 200,000 active; active = well fitted curve in the direction sought with a large enough effect; inconclusive = small, poorly fitted or top-dose-only effect, or another doubt; inactive = no such curve, though single readings can be large; an effect the other way counts as inactive or inconclusive;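 note: plate controls were neutral wells for no effect and buffer without enzyme for full effect; nearly all actives have a fitted effect of over 40% in size; top concentration of the series not given in the record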
Target sequence (P25779 123-467 limits assumed): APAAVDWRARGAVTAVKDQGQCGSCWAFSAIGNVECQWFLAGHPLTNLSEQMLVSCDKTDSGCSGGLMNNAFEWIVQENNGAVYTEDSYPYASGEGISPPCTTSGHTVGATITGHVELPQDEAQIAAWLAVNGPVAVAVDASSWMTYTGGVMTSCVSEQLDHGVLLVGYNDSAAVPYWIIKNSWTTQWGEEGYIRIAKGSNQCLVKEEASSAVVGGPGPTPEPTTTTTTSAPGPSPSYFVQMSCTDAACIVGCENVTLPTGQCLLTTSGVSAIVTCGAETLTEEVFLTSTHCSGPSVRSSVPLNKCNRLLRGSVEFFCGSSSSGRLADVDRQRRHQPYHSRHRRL
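Cysteine protease activity tested under reducing, mildly acidic conditions (100 mM sodium acetate pH 5.5, 5 mM DTT) plus 0.01% Triton X-100. Cruzain 1.5 nM; substrate Z-FR-AMC 2 uM; 15 min compound preincubation at room temperature.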
NS1 inh: influenza NS1 inhibition; S. cerevisiae slowed by influenza A NS1, growth recovery by OD600; Potency, µM (titrated, usually from 46.1 µM), for inactives: top-dose activity, positive = more growth; 0.4% of 270,000 active; AID 2326; note: actives are rising curves; nearly all actives have a fitted effect of over 50% in size
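Read-out: OD600 growth recovery of NS1-expressing budding yeast. Cells grown overnight at 30C in -URA glucose medium, washed, resuspended and diluted 1:100 in 2% galactose assay medium, pH 6.0. Same strain lacking NS1 served as positive control.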
Marburg entry inh: inhibitors of Marburg virus binding or cell entry; Marburg virus pseudotyped entry inhibition, cell reporter; control for the full effect not named in the record; about a third of the inactives were read at about 46 µM; Potency, µM (titrated, usually from 37.8 µM), for the others: at the top dose activity change, negative = inhibition, hits mostly inhibitors; AID 540276; 1.8% of 300,000 active; active = well fitted inhibition curve with a large enough effect; inconclusive = small, poorly fitted or top-dose-only effect, or effect the other way; inactive = flat fitted curve, though single readings scatter; tested in HEK293 cells; about a fifth of its hits are not listed in these tables; note: % is set by controls: 0 for no effect and ±100 for the full control effect; luciferase read-out
Cruzain noTriton: inhibitors of Trypanosoma cruzi cruzain without detergent; P25779; purified cruzain, Z-FR-AMC fluorescence, no detergent; Potency, µM, for the others: max response, negative = inhibition, hits mostly inhibitors; 2.3% of 200,000 active; AID 1476; active = well fitted curve in the direction sought with a large enough effect; inconclusive = small, poorly fitted or top-dose-only effect, or another doubt; inactive = no such curve, though single readings can be large; an effect the other way counts as inactive or inconclusive;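 note: plate controls were enzyme without inhibitor for no effect and buffer without enzyme for full effect; nearly all actives have a fitted effect of over 40% in size; top concentration of the series not given in the record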
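Purified cruzain at 1.5 nM, pre-incubated 15 min with compound at room temperature in 100 mM sodium acetate pH 5.5, 5 mM DTT, 0.00005% Triton X-100. Reaction started with 2 uM Z-FR-AMC; AMC fluorescence increase over 60 s gives rate.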
RE007 growth inh: less growth of the S. pombe RE007 Vpr strain | S. pombe RE007 Vpr strain, BacTiter-Glo ATP luminescence, 24 h; control for the full effect not named in the record | Potency, µM (series often up to 92.2 µM), inactives show at the highest dose activity change, negative = less growth | 0.21% of 360,000 active; active = well fitted falling curve with a large enough effect; inconclusive = small, poorly fitted or top-dose-only effect; inactive = no such curve, though single readings can be large or run the other way;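 note: % is set by controls: 0 for no effect and ±100 for the full control effect; nearly all actives have a fitted effect of over 50% in size; the assay follows cell death caused by Vpr and the record does not say whether a fall means rescue or toxicity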
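Fission yeast strain RE007, carrying one chromosomally integrated HIV-1 vpr copy, was seeded at OD 0.01 in PMG+AL medium with 23 nL pinned compound. After 24 h at 30 °C and 99% humidity, viability was read by BacTiter-Glo luminescence.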
* hit, by the source's call; ? = inconclusive; · = no result given; [ ] = another dose, or the depositor's remark. Unless noted, calls come from the whole dose curve; as a rule, active means well fitted rising curve with a large enough effect; inconclusive means small, poorly fitted or top-dose-only effect; inactive means no such curve, though single readings can be large or run the other way. Potency is the fitted concentration of half-maximal effect.

SMILES	2A StopGo	LASV entry inh	SARS PLpro yeast	Cruzain Triton	NS1 inh	Marburg entry inh	Cruzain noTriton	RE007 growth inh
Cc1cc(C)nc(NC(=O)CSc2nccc(C)n2)n1	7%	·	0%	·	-2%	·	·	9%
CCOc1ccc(S(=O)(=O)NCc2ccccc2OC)cc1	21%	·	1%	·	1%	·	·	22%
COc1ccc(COC(=O)N/N=C/c2cccs2)cc1	33%[activator]	·	-4%	·	6%	·	·	1%
Cc1cccc(NC(=O)c2nc[nH]c2C(=O)N[C@@H](CC(C)C)C(=O)OCc2ccccc2)c1	-13%	·	-1%	·	?	·	·	12%
Nc1c(N2CCCC2)cc(Cl)c2nonc12	?	6%	-21%	-7.6%	-135%	10%	-12%	-28%
CC(C)COc1ccc(S(=O)(=O)NNC(=O)c2cc3ccccc3o2)cc1	-19%	1%	-17%	-11%	8%	?	-5%	1%
CCOc1ccccc1CNCCc1ccc2c(c1)OCO2	-9%	8%	-4%	·	27%	?	·	-3%
O=C(CSc1nc2[nH]ncc2c(=O)[nH]1)Nc1ccc(F)cc1	0%	17%	-1%	·	·	0%	·	1%
COc1ccccc1CNC(=O)C(C)NS(=O)(=O)c1ccc(Br)cc1 (configuration not stated)	-19%	-3%	8%	-1.9%	2%	?	-1%	-1%
CCC(C)(C(=O)NC1CCCC1)N(Cc1ccco1)C(=O)c1ccc2c(c1)OCO2 (configuration not stated)	-3%	6%	-2%	-5.1%	-15%	12%	-1%	-1%
O=C(Cn1cc2c(n1)CCCC2)N1CCCc2ccccc21	26%	·	-3%	-3.2%	-16%	·	-5%	8%
O=C(CCCSc1nc2ccccc2[nH]1)Nc1nnc(-c2ccccc2)o1	-17%	-3%	4%	1.6%	2%	-23%	-1%	-7%
N#Cc1c(NC(=O)CN2CCOCC2)oc(-c2ccccc2)c1-c1ccccc1	-10%	?	3%	-6.7%	-86%	-18%[46.1 µM]	?	4%
Cc1noc(-c2ccc(-c3noc(-c4ccc([N+](=O)[O-])c(C)c4)n3)cc2)n1	0%	-2%[46.1 µM]	·	0.3%	·	·	7%	·
CCc1ccc(C2N(c3ccc(OC)cc3)C(=O)C3CCCN32)cc1 (configuration not stated)	8%	·	8%	1.4%	-2%	-4%	-9%	-1%
COc1ccc(-c2cc(C(=O)N3CCc4ccccc4C3)no2)cc1OC	10%	-3%	-14%	-1.6%	-85%	3%	?	-18%
COC(=O)c1cc(NC(=O)c2cccc([N+](=O)[O-])c2C)ccc1Cl	-12%	?	-2%	·	-4%	?	·	-8%
CCOC(=O)N1CCN(C(=O)C(=O)Nc2sc3c(c2C(N)=O)CC(C)(C)OC3)CC1	-16%	·	3%	·	-4%	·	·	-6%
CC(Sc1nnc(-c2cccnc2)n1-c1ccccc1)C(=O)NCc1ccc2c(c1)OCO2 (configuration not stated)	·	-1%	4%	6.2%	-5%	20%	1%	-4%
Cc1ccc(-n2c(N)cc(=O)nc2SCC(=O)N2CCN(c3ccccc3)CC2)cc1	11%	-9%[46.1 µM]	-3%	·	4%	22%[46.1 µM]	·	-3%
COc1ccc(C(C)C)cc1S(=O)(=O)N1CCN(C)CC1	59%[activator]	9%	4%	1.5%	0%	-1%	-9%	-3%
O=C(/C=C/c1cccs1)N1CCC2(CC1)Oc1ccc(Cl)cc1C(=O)C21CC(c2cccnc2)=NO1 (configuration not stated)	?	·	1%	·	7%	·	·	0%
CC(=O)Nc1ccccc1NC(=O)c1cc(C)cc(C)c1	-4%	5%	0%	·	5%	23%[46.1 µM]	·	-7%
CCC(C(=O)Nc1ccc(C(=O)OC)cc1)n1nc(-c2ccc(C)c(C)c2)ccc1=O (configuration not stated)	-25%	5%[46.1 µM]	·	3.5%	·	-29%[46.1 µM]	6%	·
CCOc1cccc(C(=O)N2CCCCC2c2cccnc2)c1 (configuration not stated)	-5%	10%	3%	4.4%	3%	-7%	-1%	23%
COc1ccc(NC(=O)CSc2nc(N)c3cc4c(nc3n2)CC(C)(C)OC4)cc1	0%	?	0%	·	5%	?	·	-5%
CN(C)CCC(=O)NCC1OCCc2ccccc21 (configuration not stated)	-21%	3%	10%	0.7%	-4%	-4%[46.1 µM]	-2%	3%
Cc1[nH]c2ccccc2c1C(=O)C(=O)NC1CC(=O)N(c2cccc(F)c2)C1 (configuration not stated)	-26%	6%[46.1 µM]	·	-5.0%	·	·	-19%	·
COc1ccccc1-c1nnc(SCC(=O)NC2CCCCC2)n1N	13%	8%	7%	·	·	-1%	·	-18%
Cc1cc(C)c(NC(=O)c2ccoc2C)c(C)c1	-5%	2%	10%	1.9%	-11%	-5%	-2%	57%
S=c1[nH]nc(-c2n[nH]c3c2CCC3)n1/N=C/C=C/c1ccco1	-21%	·	1%	·	11%	·	·	-10%
COCCOC(=O)C1=C(C)NC2=C(C(=O)CCC2)C1c1cc2c(cc1Br)OCO2 (configuration not stated)	·	-7%	4%	-1.9%	-22%	-2%	6%	9%
Cc1ccccc1C(=O)Nc1nnc(S(=O)(=O)N2CCCc3ccccc32)s1	4%	7%[46.1 µM]	·	-0.7%	·	·	13%	·
COc1ccc2oc(=O)c(-c3nc(-c4cc(OC)c(OC)c(OC)c4)no3)cc2c1	-20%	12%[46.1 µM]	·	0.1%	·	·	15%	·
O=C(NCc1ccccc1)c1cc(-c2ccncc2)nc2ccccc12	-15%	-48%[46.1 µM]	-2%	·	-3%	?	·	-10%
Cc1ccccc1NC(=O)CN1CCc2ccccc2C1	0%	11%[46.1 µM]	-3%	·	-2%	?	·	-9%
CCOc1ccc(NC(=O)Cn2cc(C(C)=O)c3ccccc32)cc1	?	?	-2%	·	4%	?	·	5%
COc1ccc(CNC(=O)C(C)N=C2NS(=O)(=O)c3ccccc32)cc1OC (configuration not stated)	?	-1%	·	3.8%	11%	-9%	3%	-14%
CC(=O)N1c2ccc(S(=O)(=O)N3CCC(C(=O)N4CCN(c5cccc(C(F)(F)F)c5)CC4)CC3)cc2CC1C (configuration not stated)	?	·	-8%	·	?	·	·	-1%
COc1ccccc1CN1CCN(C2CCN(C(=O)NC(C)C)CC2)C(=O)C1=O	-16%	?	·	2.2%	·	·	-5%	·
Cc1ccc(-c2csc3nc[nH]c(=S)c23)cc1	-28%	-2%	?	-8.4%	2%	-29%	-4%	1%
O=C(Nc1cccnc1)c1ccccc1O	41%[activator]	9%	-11%	-1.3%	-100%	7%	-4%	-21%
O=S(=O)(NCC(c1ccco1)N1CCN(c2ccccc2)CC1)c1ccccc1 (configuration not stated)	-6%	6%[46.1 µM]	·	-4.2%	·	·	0%	·
CN(C)S(=O)(=O)c1cccc(C(=O)NCC2CCCO2)c1 (configuration not stated)	-8%	6%	11%	9.2%	-5%	27%	5%	0%
O=C1NC2(CCCCC2)C(=O)N1CC(=O)N1CCc2ccccc21	14%	0%[46.1 µM]	-4%	·	·	21%[46.1 µM]	·	6%
COc1ccc(S(=O)(=O)NCc2ccco2)cc1N(C)S(=O)(=O)c1ccccc1	44%[activator]	-30%	1%	·	2%	-1%[46.1 µM]	·	-14%
CC(C)c1ccccc1NC(=O)COC(=O)COc1ccccc1[N+](=O)[O-]	-8%	15%[46.1 µM]	-2%	·	-7%	19%[46.1 µM]	·	5%
NC(=O)c1ccccc1OCC(=O)O	-19%	4%	2%	5.0%	-9%	8%	2%	7%
O=C(NNC(=O)C1CCN(Cc2cccc(F)c2)CC1)c1cccs1	-8%	2%	-2%	·	4%	-6%[46.1 µM]	·	4%
Cc1cc(NC(=O)CCSc2ccc(Cl)cc2)no1	9%	15%	0%	·	-3%	11%[46.1 µM]	·	11%
CCCCNC(=O)Nc1ccccc1C(=O)NCc1ccco1	·	0%	-3%	-16%	-58%	-10%	-3%	-1%
Cc1cccc(/C(N)=N/OC(=O)Cc2cccs2)c1	74%[activator]	11%	-2%	-2.3%	1%	2%	3%	-18%
Cc1ccc(S(=O)(=O)N(C)c2ccc(OCC(=O)Nc3nc4ccccc4s3)cc2)cc1	?	?	9%	-0.9%	3%	15µM*	?	6%
COc1ccc(Cl)cc1N(C(=O)Nc1cccc(Cl)c1)C1=NCC(C)S1 (configuration not stated)	-10%	3%	-1%	-3.0%	0%	22%	-1%	-20%
CCOC(=O)c1cc2sc(C)cc2n1CC(=O)N1CCN(C(=O)c2ccco2)CC1	·	11%	8%	2.3%	-15%	3%	?	1%
CC(NC(=O)c1ccccc1F)c1nnc(SCC(=O)NC2=NCCS2)n1C (configuration not stated)	-7%	0%[46.1 µM]	-2%	·	8%	0%[46.1 µM]	·	0%
O=[N+]([O-])c1ccc(NN=C(c2ccccc2)c2ccccc2)nc1	?	3%	·	·	·	0%	·	3%
Cc1ccsc1C(=O)N1CCN(S(=O)(=O)c2cccc(F)c2)CC1	-1%	1%	0%	·	·	-10%[46.1 µM]	·	2%
CC1=C(C(=O)OCc2ccccc2)C(c2ccccc2Cl)NC(=O)N1CCCCCC(=O)O (configuration not stated)	-17%	·	1%	·	-33%	·	·	-1%
Cc1nc(CN2CCCC2=NC#N)n(-c2ccccc2)n1	-12%	-5%	8%	0.8%	-1%	13%	0%	10%

Later entries:
SMILES	2A StopGo	LASV entry inh	SARS PLpro yeast	Cruzain Triton	NS1 inh	Marburg entry inh	Cruzain noTriton	RE007 growth inh
N#Cc1ccc(NC(=O)Cn2cnc([N+](=O)[O-])c2)cc1	9%	-2%[46.1 µM]	3%	·	8%	-10%[46.1 µM]	·	21%
O=C(CC(NC(=O)c1ccccc1)c1ccccc1)Nc1ccc(F)c(F)c1 (configuration not stated)	10%	-27%	0%	·	2%	?	·	14%
CCN1C(=O)CSC1=Nc1ccc(C(=O)O)cc1	3%	-15%[46.1 µM]	4%	·	12%	7%[46.1 µM]	·	1%
COc1cccc(CN(CC(=O)NCc2ccccc2)C(=O)c2csnn2)c1	-8%	-9%	10%	·	9%	4%[46.1 µM]	·	-4%
